Assay outcomes deposited in PubChem by several laboratories.
ugtP null kill = growth inhibition of ugtP-null S. aureus, primary screen, RN4220 ugtP deletion, OD600 | 16 h; some inactives read as strong as hits | growth inhibition, % (no concentration beside the values) | actives 0.54% (n = 330,000);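 active means z-score under -3 and OD600 up to 0.15 on both plates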;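 further: plate controls were untreated wells for no effect and antibiotic for full effect; wells of about 80 µL received 100 nL stock; the first replicate is given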
BJeLR lethal = MLPCN primary cell-based screen for lethality selective to Ras in HRASV12 cells. BJeLR (HRASV12) viability, CellTiter-Glo ATP luminescence, 48 h; reference of the scale not given here. inhibition, % (no concentration beside the values). actives 0.17% (n = 300,000);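 active means replicate mean above 50%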;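 further: 50 nL library stock added to about 25 µL; numbers are from one replicate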
Mtb hypoxia rep = PubChem AID 1159583; M. tuberculosis hypoxia-regulated fluorescent reporter, fluorescence; fluorescence inhibition, % (no concentration beside the values); actives 0.1% (n = 300,000);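 active means 35 to 45% if threefold the growth effect, above 45% if 1.5-fold the growth effect; inactive means the rest, general growth blockers included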;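 further: wells of about 50 µL received 100 nL stock; 0% = vehicle wells and 100% = reference inhibitor wells; whole bacteria with a GFP reporter of the hypoxia response; strong numbers were not always called active; many hits fall short of the cut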
PrP UTR inh = inhibition of PrP 5' UTR reporter expression | cell-based PrP 5' UTR mRNA reporter, plate reader | inhibition, % (no concentration beside the values) | actives 0.35% (n = 340,000) | AID 488862, 2010;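 active means every replicate at 50% or more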;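 further: 0 = median of the neutral control wells; tested in H4 reporter cells; numbers are from one replicate; inactives centre near -14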
Bead autofluor = compound fluorescence in toxin protease inhibitor counterscreen; fluorescence intensity (concentration not given with the values); actives 3.1% (n = 360,000); compound autofluorescence counterscreen, microsphere flow cytometry; active compounds read high; AID 624483;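 active means at least 3 SD above the mean of all compounds, about 16000 in these data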;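 further: 100 nL of 1 mM stock went into each well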
Sa RN4220 lethal = growth inhibition of S. aureus RN4220, primary screen, OD600; 16 h; inhibition, % (test concentration not listed); actives 0.33% (n = 330,000); AID 1259311, 2017;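 active means z-score of -3 or lower and OD600 up to 0.18 on both plates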;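 further: plate controls were untreated cells for no effect and reference antibiotic for full effect; stock transfer was 100 nL into about 80 µL; one replicate is shown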
Mtb hypoxia rep growth = second read-out of Mtb hypoxia rep, no call of its own (marks repeat the call); growth inhibition, %; measured here: M. tuberculosis growth (absorbance);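 0% = vehicle and 100% = reference antibiotic; read after six days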
An asterisk follows results filed as active; . = not tested or not shown; & = joins results of further samples.

SMILES	ugtP null kill	BJeLR lethal	Mtb hypoxia rep	Mtb hypoxia rep growth	PrP UTR inh	Bead autofluor	Sa RN4220 lethal
Cc1c(C)n(CC(O)CN2C(=O)c3ccccc3S2(=O)=O)c2ccccc12 (stereo not drawn)	-23	2	5	8	-19	3100	-2.0
CCOC(=O)Cn1c(C)nc2ccccc21	-2	-6	.	.	11	4886	1.9
CCc1ccc(C(C(=O)NCc2ccccc2)N(C(=O)c2csnn2)C2CC2)cc1 (stereo not drawn)	4	-6	-2	6	-11	3685	1.9
S=C(Nc1ccc(Cl)cc1)NC1CCN(Cc2ccccc2)CC1	-3	3	10	10	-14	2012	-2.7
NS(=O)(=O)c1ccc(NC(=O)COC(=O)c2ccc(Cl)nc2)cc1	9	7	3	11	-16	3444	3.1
Cc1ccc(OC(=O)c2ccccc2)cc1C	0	.	8	8	-30	3332	4.9
COc1ccc(C2=NN(C(=O)/C=C/c3ccccc3)C(c3ccccc3)C2)c(OC(C)=O)c1 (stereo not drawn)	2	-11	-5	-5	-5	2650	-2.8
Cc1ccc(-c2nnn(CC(=O)N(CC(=O)NC3CCCC3)c3ccc(F)cc3)n2)o1	1	2	9	-6	-5	3978	1.7
O=C(CSc1nc(-c2cccs2)cc(C(F)(F)F)n1)NCCCn1ccnc1	10	2	-1	10	-14	11320	5.0
C=CCNC(=S)NNC(=O)c1cccc(Br)c1	-2	7	-2	8	-12	2576	4.8
COc1ccc(C(=O)NCc2nnc(SCC(=O)Nc3cccc(OC)c3)o2)cc1	11	-1	7	-5	-17	4097	-0.7
Cc1cc(N2CCCCC2)nc(SCc2ccc(C#N)cc2)n1	-13	4	7	3	-23	3735	-2.5
O=C(NCCCn1ccnc1)c1ccc(-c2ccccc2)cc1	2	-6	3	-7	.	3388	3.8
O=C(O)/C=C/c1ccccc1Oc1ccccc1	-5	-5	6	8	-5	6517	1.4
CCOC(=O)Nc1sc2c(c1C#N)CCCC2	-7	0	2	2	-53	3036	4.7
CCS(=O)(=O)c1ccc(O)c(NC(=O)COc2ccc(C)cc2)c1	4	4	5	0	-10	2105	6.8
O=C(NCc1ccccc1)c1nc2c(nnn2Cc2cccc(Cl)c2)c(=O)[nH]1	-10	3	0	5	-21	8286	11
COc1ccc2c(CSc3nnc(-c4cccnc4)n3-c3ccccc3F)cc(=O)oc2c1	1	-11	-2	4	-19	2498	3.7
O=[n+]1c2c(n([O-])c3cc(Br)ccc31)CCCC2	2	7	11	9	-31	8805	3.5
OC1(c2ccc(F)cc2)CN(c2ccccc2)C2=[N+]1CCS2 (stereo not drawn)	-5	3	-2	8	-6	2585	5.3
Cc1ccccc1S(=O)(=O)Cc1ccc(C(=O)NCc2ccco2)o1	-5	6	18	8	-30	5236	5.7
O=C(CN1CCN(c2ccc(O)cc2)CC1)Nc1ccc(-c2ccccc2)cc1	11	-7	7	10	-30	3934	3.2
Cc1cc(NC(=O)CSc2nnc(-c3ccc(S(=O)(=O)N4CCCC4)cc3)n2C)no1	12	7	14	8	-11	7416	5.3
COc1cccc(-c2nc3sc4c(c3c(=O)[nH]2)CCCCC4)c1	-6	-8	7	3	-95	9321	-7.0
O=C(C1=CC(C2CC2)CC(OCc2ccc(CO)cc2)O1)N1CCOCC1 (stereo not drawn)	-1&0	.	0&4	-2&5	.	.	8.0&4.6
CCN1CCN(C(c2ccc(OC)cc2)C(O)C(=O)c2c[nH]c3ccccc23)CC1 (stereo not drawn)	-2	-1	14	6	-19	3154	6.5
C=CCn1nnnc1SCC(=O)Nc1ccc(OC)cc1	4	3	3	6	-11	5526	1.9
NC(=O)COC(=O)CCCc1c[nH]c2ccccc12	-2	5	8	2	-3	3333	1.2
CCc1ccc(NC2=NCC(=O)N2Cc2ccc3c(c2)OCO3)cc1	8	1	.	.	9	4772	5.6
Cc1ccc(Nc2nc3ccccc3c(=O)s2)cc1	0	-2	7	11	-11	1938	0.9

Full records, looked up by structure. Order of values: ugtP null kill	BJeLR lethal	Mtb hypoxia rep	Mtb hypoxia rep growth	PrP UTR inh	Bead autofluor	Sa RN4220 lethal
CCS(=O)(=O)c1ccc(O)c(NC(=O)COc2ccc(C)cc2)c1 in the list: 4	4	5	0	-10	2105	6.8
S=C(Nc1ccc(Cl)cc1)NC1CCN(Cc2ccccc2)CC1 in the list: -3	3	10	10	-14	2012	-2.7
CCOC(=O)Cn1c(C)nc2ccccc21 in the list: -2	-6	.	.	11	4886	1.9

Carrying on.
SMILES	ugtP null kill	BJeLR lethal	Mtb hypoxia rep	Mtb hypoxia rep growth	PrP UTR inh	Bead autofluor	Sa RN4220 lethal
COc1ccc(NC(=O)Cn2nnc(-c3ccccc3N)n2)cc1OC	1	-1	9	0	-32	5152	-0.3
CCC(=O)c1ccc(OC(=O)N(C)c2ccccc2)cc1	7	11	11	8	-25	4145	2.7
CC(Oc1ccccc1)C(=O)N1CCN=C1SCc1ccc(F)cc1 (stereo not drawn)	4	-11	13	3	-37	4676	-0.2
O=C1NC2(CCCC2)C(=O)N1Cc1cc(=O)n2ccsc2n1	8	13	-9	-5	.	.	2.4
N#Cc1ccc(-c2csc(NC(=O)c3cc(-c4cccs4)nc4ccccc34)n2)cc1	5	2	-1	-2	-22	4389	1.3
COc1ccc(C=NNC(=O)c2ccncc2)cc1CN1CCOCC1	5	.	.	.	.	.	1.5
CCOC(=O)c1cc(-c2ccccc2)nc2ccc(C)cc12	11	-6	8	0	6	4869	-2.1
Cc1ccc(C(=O)C2(C)C3c4cc(Br)ccc4OC(=O)C32C(=O)c2ccco2)cc1 (stereo not drawn)	-7	-5	5	2	-6	3242	-6.1
Oc1ccc(Nc2nc(Cl)nc(NCc3ccco3)n2)cc1	0	5	8	6	-5	2146	5.6
CCO[C@H]1OC(C(=O)N2CCN(Cc3ccccc3)CC2)=C[C@@H](C2CCCCC2)[C@@H]1CCCO	.	-1	.	.	-10	4064	.

Compounds shown so far with a Cl atom:
SMILES	ugtP null kill	BJeLR lethal	Mtb hypoxia rep	Mtb hypoxia rep growth	PrP UTR inh	Bead autofluor	Sa RN4220 lethal
S=C(Nc1ccc(Cl)cc1)NC1CCN(Cc2ccccc2)CC1	-3	3	10	10	-14	2012	-2.7
NS(=O)(=O)c1ccc(NC(=O)COC(=O)c2ccc(Cl)nc2)cc1	9	7	3	11	-16	3444	3.1
O=C(NCc1ccccc1)c1nc2c(nnn2Cc2cccc(Cl)c2)c(=O)[nH]1	-10	3	0	5	-21	8286	11
Oc1ccc(Nc2nc(Cl)nc(NCc3ccco3)n2)cc1	0	5	8	6	-5	2146	5.6

Next entries
SMILES	ugtP null kill	BJeLR lethal	Mtb hypoxia rep	Mtb hypoxia rep growth	PrP UTR inh	Bead autofluor	Sa RN4220 lethal
CCOC(=O)N1CCC(NC(=O)c2cc3ccccn3n2)CC1	8	-18	1	5	31	4368	6.9
COc1cc(-c2nc3n(c(=O)c2C#N)CCS3)cc(OC)c1OC	0	0	7	2	-21	3537	3.1
Cc1c(NC(=O)c2cc(-c3ccccc3)nc3ccccc23)c(=O)n(-c2ccccc2)n1C	3	.	-3	2	8	3992	1.9
CC(CNC(=O)CCC(=O)N1CCOc2ccc(Cl)cc21)c1ccccc1 (stereo not drawn)	-7	-10	5	12	-16	6030	-4.8
O=C(Nc1cccc(S(=O)(=O)N2CCOCC2)c1)c1ccc2c(=O)n3c(nc2c1)CCCCC3	5	7	9	9	-11	4355	3.6
COc1ccc(-c2cn3ccccc3n2)cc1[N+](=O)[O-]	-8	6	2	13	-54	2201	0.2
COC(=O)c1ccc(COc2ccc(C=NNc3cccc(C(=O)O)c3)cc2)cc1	-8	.	-1	-1	.	.	4.6
O=C(Nc1ccc(F)cc1)c1ccccc1NS(=O)(=O)N1CCCC1	8	5	6	13	-18	3529	2.0
CC1(C(=O)NNC(=S)NCc2ccco2)CC1(Cl)Cl (stereo not drawn)	0	-2	0	16	-28	3319	0.5
C=Cn1cc[n+](CC(=O)c2ccc(Cl)cc2)c1	8	2	4	-3	10	3353	4.6
COC(=O)[C@@]1(Cc2ccc(OC)cc2)[C@@H]2[C@@H](CC(=O)[C@H]2CC(=O)C(=O)N(C)C)CN1C(=O)c1ccccc1	.	11	.	.	-8	3843	.
CCn1c(Sc2nc(C)nc3scc(-c4cccs4)c23)n[nH]c1=O	-2	-7	3	14	-13	3284	9.3
CC1=Nc2cc(C(=O)N3CCCC3)ccc2Sc2ccc(C)cc21	-1	-14	13	6	-22	5844	3.2
O=C(NCC1CCCO1)c1c(O)c2cccc3c2n(c1=O)CC3 (stereo not drawn)	7	-5	-4	6	-4	2523	19
Cc1ccc(C=Nc2cc([N+](=O)[O-])ccc2C)s1	2	-6	13	1	-27	1981	2.6
COc1ccccc1N(CC(=O)NC1CCCCC1)S(C)(=O)=O	16	2	1	3	3	9044	6.8
O=C1N(c2ccc(Cl)cc2)C(c2cccnc2)N2CCCN12 (stereo not drawn)	-7	3	5	-1	-11	4021	-0.7
COc1ccc(-n2nc([N+](=O)[O-])c(=NCCc3ccccc3)n2O)cc1	49	-8	6	6	-36	9894	20
CCOCCCNC(=O)C(NC(=O)c1ccccn1)c1ccc(C)cc1 (stereo not drawn)	1	-2	9	7	-17	4057	8.4
COc1c2ccc(OCCC(C)=CC(=O)C=C(C)C)cc2nc2occc12	1	.	-9	1	.	.	4.8
COC(=O)C(NC(=O)c1ccc(OC)cc1)(Nc1ncc(S(=O)(=O)c2ccc([N+](=O)[O-])cc2)s1)C(F)(F)F (stereo not drawn)	9	-1	-1	15	-15	3557	7.9
CC(OC(=O)c1cccnc1SCc1cc(=O)n2ccccc2n1)c1ccccn1 (stereo not drawn)	5	0	4	2	-3	16644*	6.1
O=C(CSc1nc2c(c(=O)n1-c1ccc(F)cc1)SCC2)NCC1CCCO1 (stereo not drawn)	8	-5	18	3	-4	6148	6.8
CSc1cccc(NC(=O)C2(S(=O)(=O)c3ccc(C)cc3)CC2)c1	6	-5	-3	-1	-20	4804	1.6
O=C(Cn1cncn1)N/N=C/c1cccc2ccccc12	.	0	.	.	-23	2178	.
CC(=NNC(=S)NC1CCCCC1)c1cccc(C(F)(F)F)c1	4	.	-2	-8	.	.	5.0
NC(=O)c1c(NC(=O)CSc2nc3c(c(C(F)(F)F)n2)CCc2ccccc2-3)sc2c1CCCC2	-5	4	1	6	-21	11293	-4.7
COC(=O)CCCC1=CC2=CC(=O)C(C)(OC(=O)c3cccs3)C(=O)C2=CN1CCN1CCOCC1 (stereo not drawn)	3	8	5	0	-16	3652	4.9
Cc1c(C(=O)NN)nn(-c2ccc(Cl)cc2)c(=O)c1C#N	8	.	-8	-2	-38	4303	10
O=C(NCCc1cn2ccccc2n1)c1ccc(Br)o1	11	-2	7	7	11	4389	-5.3
O=C1c2ccccc2CN2C(=O)c3ccccc3CN12	5	3	-1	8	-7	6619	-0.7
O=[N+]([O-])c1cc(CN2CCCCCC2)ccc1O	8	3	0	11	-10	4286	-3.5
C=CCn1c(COc2ccc(Cl)cc2)nnc1SCC(=O)c1c(N)n(C)c(=O)n(C)c1=O	-4	0	4	-3	-19	4432	-7.8
Clc1ccc(CON=Cc2cccs2)cc1	5	.	.	.	.	.	0.3
CN(C)/C=C/C(=O)c1nnn(C2CCCCC2)c1NC1CCCCC1	11	2	8	5	-9	7392	5.7
COC(=O)CN1C(=S)N(c2ccccc2)C(=O)C1CC(=O)Nc1ccc(Cl)cc1 (stereo not drawn)	.	-3	.	.	-4	9613	.
CC(NC(=O)c1cccc(S(=O)(=O)N2CCc3ccccc32)c1)c1ccco1 (stereo not drawn)	7	.	2	6	-20	2923	3.7
COc1cc2c(cc1OC)CN(CC(O)c1ccccc1)CC2 (stereo not drawn)	5	-4	-1	0	-25	4591	1.3
CC(=O)N1C(=O)N(C)C2C1N(C(C)=O)C(=O)N2C (stereo not drawn)	16	2	9	5	-9	2460	20
COc1ccc(CCNC(=O)C/C(C)=N/NC(=O)c2cnccn2)cc1	.	1	.	.	-12	5352	.
O=C(COC(=O)c1ccccn1)Nc1cc(Cl)ccc1Cl	7	2	-6	1	-15	3856	12
N=c1n(CCN2CCCC2)c2ccccc2n1CC(O)c1ccc(Cl)c(Cl)c1 (stereo not drawn)	-11	-7	8	6	-13	2565	-0.3
C=CCc1c(C)nc2c(C)cccc2c1SC(=N)N	.	-9	.	.	-13	3480	.
CSc1ccccc1C(=O)NCC(c1ccco1)N(C)C (stereo not drawn)	-6	-6	16	9	-7	5022	3.7
